# Screens from PubChem BioAssay.
# Menin-MLL FL inh = inhibitors of human menin-MLL interaction, wild-type MLL peptide; Fluorescence polarization, fluorescein-MLL peptide displacement from menin; FP activity change, % at 61.4 µM; 290,000 tested, under 10 active; inconclusive = falling polarisation curve, or a change in total fluorescence; inactive = total fluorescence flat and polarisation flat or rising; no compound was filed as active; the % refers to the polarisation; negative = inhibition;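 further: % of control where 0% means no effect; inhibitors lower the polarisation; unlabelled MLL peptide was the positive control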
# ClpP mod = qHTS Assay for Activators of ClpP | ATP-dependent Clp protease proteolytic subunit (Bacillus subtilis (strain 168)), P80244 | purified B. subtilis ClpP, FRET peptide cleavage, 20 min | Potency, µM (series often up to 57.5 µM), for the others: top-dose activity change, negative = active | actives 1.9% (n = 340,000) | AID 651965, 2013; active = well fitted falling curve with a large enough effect; inconclusive = small, poorly fitted or top-dose-only effect; inactive = no such curve, though single readings can be large or run the other way; further: potency means the concentration at half of the fitted maximal effect; the source files actives as falling curves though it sought activators and does not explain the sign; nearly all actives have a fitted effect of over 65% in size; many hits overshoot -100%
# Target sequence (P80244 whole entry, looked up): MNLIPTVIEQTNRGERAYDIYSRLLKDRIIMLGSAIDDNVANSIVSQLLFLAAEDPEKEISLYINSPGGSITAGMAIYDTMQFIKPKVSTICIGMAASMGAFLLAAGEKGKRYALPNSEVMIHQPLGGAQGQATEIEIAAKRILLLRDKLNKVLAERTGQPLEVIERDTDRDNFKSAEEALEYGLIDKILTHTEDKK
#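 Purified B. subtilis ClpP, 10 microg/mL final in Tris/HCl pH8 with KCl, BSA, glycerol and Tween-20, cleaved an Abz/nitrotyrosine-quenched decapeptide. Fluorescence (ex 320, em 430) was read at 0 and 20 min at room temperature. Delta was normalized to 5.8 microM ADEP and DMSO/no-enzyme controls.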
# TRPML1 ag = activates the human TRPML1 channel | TRPML1-expressing cells, Ca2+ dye fluorescence, FDSS; host cell line not named in the record; reference of the full effect not given here | actives 0.12% (n = 410,000) | AID 624414 | activation, % (concentration not given with the values); in the data active = activation above about 50%; inconclusive = about 30% to 50%; inactive = below about 30%; further: 0% is about no effect; the text of the record puts the active cut at 80%
# Target sequence (Q9GZU1 whole entry, looked up): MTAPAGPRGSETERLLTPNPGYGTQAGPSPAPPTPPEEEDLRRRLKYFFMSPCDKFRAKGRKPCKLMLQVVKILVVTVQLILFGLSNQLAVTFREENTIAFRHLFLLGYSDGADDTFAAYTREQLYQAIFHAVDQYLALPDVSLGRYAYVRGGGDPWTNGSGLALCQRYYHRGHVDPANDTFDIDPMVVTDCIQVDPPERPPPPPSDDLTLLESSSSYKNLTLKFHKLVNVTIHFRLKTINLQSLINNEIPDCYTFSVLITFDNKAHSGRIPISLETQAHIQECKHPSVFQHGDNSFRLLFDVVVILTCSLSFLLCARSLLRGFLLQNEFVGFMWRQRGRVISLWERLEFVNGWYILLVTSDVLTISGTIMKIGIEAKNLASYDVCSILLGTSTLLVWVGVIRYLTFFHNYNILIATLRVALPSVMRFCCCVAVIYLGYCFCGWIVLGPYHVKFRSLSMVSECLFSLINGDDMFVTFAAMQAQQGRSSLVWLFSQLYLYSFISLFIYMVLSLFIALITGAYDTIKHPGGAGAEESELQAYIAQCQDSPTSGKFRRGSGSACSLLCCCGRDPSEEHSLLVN
#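 In this qHTS format, compounds were pin-transferred onto Ca8-dye-loaded TRPML1-DL cells induced with Tet overnight, and intracellular Ca2+ fluorescence was recorded kinetically for 110 s after a 10 s baseline. A subsequent 4uM final 54-4 (EC80) addition followed by a second 110 s read served as the antagonist phase.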
# TRPML1 blocker = human mucolipin-1 channel inhibition | Q9GZU1 | TRPML1-inducible cells, Ca2+ dye fluorescence, FDSS; hits give low values; inhibition of EC80 agonist-evoked calcium signal | activity change, negative = inhibition, % (test concentration not listed) | actives 0.02% (n = 390,000) | AID 624415; in the data active means activity change below about -50%; inconclusive means about -30% to -50%; inactive means above about -30%;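 further: stimulus is agonist 54-4 at its EC80 concentration; on the % scale 0 is the no-effect control and ±100 the full control effect; compound concentration not given in the record; the text of the record puts the active cut at -80%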
#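 TRPML1-DL cells, Tet-induced overnight (~16 h, 37 °C) at 1,500 cells/well, were loaded with Ca8 no-wash dye plus quencher for 45-90 min at room temperature. Compounds were pinned during FDSS kinetic reading; agonist 54-4 at EC80 (4 uM final) then added.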
# gsp antag = gsp mutant antagonism; gsp-mutant cells, cAMP HTRF, 30 min; control for the full effect not named in the record; Potency, µM (doses to about 76.9 µM), for the others: at the top dose activity change, negative = inhibition, usual class: inhibitors; actives 0.4% (n = 340,000); AID 624288; active = falling curve of any shape with a large fitted effect; inconclusive = falling curve, mostly with a smaller effect; inactive = flat or rising curve; cell line not stated here;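 further: intracellular cAMP measured with PDE inhibitor Ro 20-1724 present during compound exposure; potency means the concentration at half of the fitted maximal effect; on the % scale 0 is the no-effect control and ±100 the full control effect; nearly all actives have a fitted effect of over 65% in size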
#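 HTRF cAMP measurement after 30 min RT detection following 30 min, 37C compound treatment alongside […] (added as 300 uM solution) in G418-selected cells seeded at 2000/well and grown 16–24 h.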
# gsp ag = gsp mutant agonism; actives 0.13% (n = 340,000); AID 624287; gsp mutant cells, cAMP HTRF, 30 min; control for the full effect not named in the record; Potency, µM (series often up to 76.9 µM), for inactives: top-dose activation (cAMP increase), usual class: activators; active = well fitted activation curve with a large enough effect; inconclusive = small, poorly fitted or top-dose-only effect, or another doubt; inactive = no such curve, though single readings can be large or run the other way; cell line not stated here;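 further: phosphodiesterase inhibitor Ro 20-1724 added with compounds to block cAMP breakdown; potency means the concentration at half of the fitted maximal effect; nearly all actives have a fitted effect of over 60% in size; about a fifth of the inactives were tested at one dose only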
#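 Cells stably selected in G418 were plated at 2000/well, grown 16-24 hr, then given compounds in DMSO with the PDE inhibitor […] (300 uM solution added) for 30 min at 37C; cAMP was read by HTRF.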
# Starred values were filed as active, the others as inactive; ? = inconclusive; nt = no result given; & = joins results of further samples; [ ] = dose if it differs, or a comment.
SMILES,Menin-MLL FL inh,ClpP mod,TRPML1 ag,TRPML1 blocker,gsp antag,gsp ag
COC(=O)c1ccc(NC2c3ncccc3C(=O)N2Cc2cccs2)cc1 (configuration not stated),4.6,nt,-0.3,-1,3%,?
COC(=O)C1CCN(S(=O)(=O)CCNC(=O)c2cccc(OC)c2)CC1,nt,-5.6%,0.2,2,7%,-1%
O=C(NN=C1CCCCC1)c1ccccc1-n1cccc1,-1.3,1.5%,0.9,-1,7%,4%
COc1ccccc1OCCCSc1nc(-c2ccc(C(C)(C)C)cc2)nc2cc(=O)[nH]n12,nt,1.4%,1.2,-7,nt,nt
CN(CC(=O)Nc1ccc(OC(F)(F)F)cc1)C(=O)Cc1c(Cl)cccc1Cl,-2.7,nt,0.6,7,-5%,-23%[15.4 µM]
CC[C@]12c3[nH]c4ccc(OC)cc4c3CCN1C(=O)C(CC(=O)NCCc1ccccn1)C[C@@H]2C(=O)N1CCN(C(=O)C2CC2)CC1 (some centres not stated),nt,-1.8%,-0.5,10,3%,nt
Cc1nc2ccccc2c(=O)n1NC(=O)c1ccccc1Br,5.1,-2.5%,0.3,-5,12%,-2%[15.4 µM]
Cc1cc(=O)oc(C)c1C(=O)NCc1ccccn1,2.7,-0.3%,-0.4,3,7%,-6%
COc1ccc(-c2nnc(SCC(=O)N3c4ccccc4Sc4ccccc43)o2)cc1,-1.1,1.9%,0.8,17,-9%,-6%
CCN1C(=O)c2cccc3c(S(=O)(=O)Nc4nc(C)cs4)ccc1c23,1.5,0.9%,-0.5,-16,-8%,10%
CCn1c(=O)n(CC(=O)N2CCN(c3ccccc3F)CC2)c(=O)c2ccccc21,-0.4,-24%,0.4,9,-4%,-12%
CCOC(=O)C(NC(=O)CC)(Nc1ccc(S(=O)(=O)Nc2ncccn2)cc1)C(F)(F)F (configuration not stated),5.6,-1.3%,0.0,-6,4%,6%
CC(NC(=O)c1cccs1)C(=O)NC1=NCCS1 (configuration not stated),1.0,-4.6%,0.3,-6,1%,-41%[inhibitor]
CCC(C)(C)NC(=O)C(c1ccc(OC)cc1)N(Cc1cccs1)C(=O)CCC(=O)Nc1cc(C)on1 (configuration not stated),1.3,-4.2%,1.5,-7,-6%,-39%[inhibitor]
Cc1ccc(C)c(OCC(=O)O/N=C(\N)c2cccc([N+](=O)[O-])c2)c1,-1.5,nt,2.3,22,-7%,-9%[15.4 µM]
Cc1cc(SCC(=O)Nc2ccc(Cl)cc2)nc2ccccc12,nt,-3.9%,4.0,35,nt,nt
COc1cc(C(=O)OC2CC3CCC2(C)C3(C)C)ccc1OC(C)=O (configuration not stated),0.0,-0.2%,nt,nt,-5%,nt
Cc1cc(N(C)Cc2ccccc2)nc(-c2ccccc2)n1,0.8,0.8%,1.4,13,-12%,0%
CCc1nc2c(OCCOc3ccccc3)cccn2c1N(C)C(=O)c1ccc(C)cc1,nt,-2.8%,0.5,0,nt,nt
COCCNC(=O)c1nn2cccnc2c1Cl,0.6,-0.8%,0.0,33,-3%,-20%
c1cc(-c2ccsc2)n2cnnc2c1,nt,?,-0.2,-16,nt,nt
Cn1c(=O)[nH]c(=O)c2c1nc(SCCN1CCOCC1)n2Cc1ccccc1,1.5,2.7%,0.7,-8,-13%,11%
Cc1ccc(-c2nn(-c3ccccc3)cc2C(=O)Nc2cccc(S(=O)(=O)NC3=NCCC3)c2)cc1,nt,-2.1%,1.4,-5,nt,-81%[inhibitor]
Cc1nnc(C)c2c(C)n(-c3ccccc3)c(C)c12,?,-13%,1.3,35,-7%,?
O=C(CSc1nnc(CNC(=O)c2c(F)cccc2F)o1)Nc1ccc2c(c1)OCO2,-2.1,-0.5%,0.5,-7,-10%,1%
Cc1ccc(C(=O)c2sc(Nc3ccccc3)c(S(=O)(=O)c3ccccc3)c2N)c(C)c1,nt,-9.4%,1.2,-3,nt,nt
CC1(c2ccc(OC(F)F)cc2)NC(=O)N(CC(=O)Nc2ccc(N3CCCCC3)cc2)C1=O (configuration not stated),nt,-3.8%,14,0,-5%,23%
CC(C)(C)c1ccc(OCC(=O)NNC(=S)NC(=O)c2ccco2)c(Br)c1,2.0,1.4%,2.5,11,3%,-7%
CCCCc1nnc2c(N(C)S(=O)(=O)c3ccc(C)cc3)nc3ccccc3n12,2.5,nt,1.5,6,-1%,8%[15.4 µM]
CN(C)N1C(N)=C(C#N)C(c2cccs2)C2=C1CC(C)(C)CC2=O (configuration not stated),?,nt,0.1,4,-21%,14%[15.4 µM]
Cc1cccc(NC(=O)Cn2cc(C(=O)C3CC3)c3ccccc32)c1C,1.0,nt,1.9,-12,-8%,-2%[15.4 µM]
COC(=O)c1cc(OC)cc(O)c1C(=O)c1c(O)cc(C)cc1O,-2.0,-0.6%,-0.6,14,0%,-14%
Fc1ccc(N2CN(Cc3cccnc3)CNC2=S)cc1,3.1,nt,-0.2,1,6%,-5%[15.4 µM]
CCOC(=O)c1c(NC(=O)c2c(Br)cnn2CC)sc(C)c1C,1.0,-2.7%,-1.0,-7,10%,-3%
COc1ccc(-c2[nH]ncc2CN2CCC(N3CCSCC3)CC2)cc1F,-1.8,nt,1.8,-6,9%,-15%
c1cncc(-c2nnc(C3CCCCC3)o2)c1,8.8,-1.0%,-0.4,-6,8%,18%
Cc1ccc(C)c(N2CCN(S(=O)(=O)c3ccc(C(=O)N(C)C)s3)CC2)c1,nt,1.3%,-0.8,2,nt,nt
O=C(CN(C(=O)CNS(=O)(=O)c1ccc(F)cc1)c1ccccc1F)NCc1ccco1,nt,nt,-0.1,-13,2%,4%[15.4 µM]
CCOC(=O)C1CCCN(S(=O)(=O)c2ccc3c4c(cccc24)C(=O)N3CC)C1 (configuration not stated),nt,-20%,1.1,38,-32%,11%
O=C(C1CCCN1C(=O)c1cccs1)N1CCN(S(=O)(=O)c2ccc(F)cc2)CC1 (configuration not stated),nt,-0.3%,0.0,-19,12%,-45%[inhibitor]
Cc1cc(C(=O)CN2C(=O)C(=O)N(C3CCCC3)C2=O)c(C)n1CCc1ccc(F)cc1,nt,2.5%,-0.2,7,6%,?
CCOc1ccc(CCNC(=O)Cn2nnc(-c3ccccc3Cl)n2)cc1OCC,nt,-1.9%,0.3,61,nt,nt
O=C(NC(C(=O)c1ccccc1)n1cnccc1=O)c1ccccc1 (configuration not stated),6.0,-1.0%,1.8,-2,-8%,5%
CCn1c(N)c(C(N)=O)sc1=S,1.6,0.8%,-0.7,-10,0%,21%
O=C(NCC(c1ccco1)N1CCN(c2ccccc2F)CC1)C(=O)NC1CC1 (configuration not stated),nt,-12%,-0.2,35,0%,-29%
CCN(c1ccccc1)S(=O)(=O)c1ccc(C(C(=O)OC)C(=O)OC)c([N+](=O)[O-])c1,-0.6,nt,0.0,33,-1%,4%[15.4 µM]
Cc1nnc(SCC(=O)NC2CCCCCC2)n1N,nt,-2.4%,0.2,7,7%,?
CSC1=N/C(=C/c2cccnc2)C(=O)N1Cc1ccc(Cl)cc1,0.7,?,1.0,65,-3%,13%
COc1cccc(-c2cc(C(=O)NCCCn3ccnc3)c3ccccc3n2)c1,11,-0.6%,2.1,23,-10%,-57%[inhibitor]
CCC(C)NC(=O)C1CCCN(C(=O)NC2CCCCC2)C1 (configuration not stated),1.0,-0.5%,1.2,0,8%,9%

# Next results follow.
SMILES,Menin-MLL FL inh,ClpP mod,TRPML1 ag,TRPML1 blocker,gsp antag,gsp ag
O=C(NCCS(=O)(=O)NCCCc1ccccc1)c1ccccc1,nt,nt,-0.7,-8,9%,-6%[15.4 µM]
O=C1NC(=O)C2(C=C(c3ccccc3)C(O)(c3ccccc3)C2)N1 (configuration not stated),nt,1.2%,1.7,3,-5%,1%
CCCCC(C(=O)NC1CCCC1)N(C(=O)c1snc(C(N)=O)c1N)c1ccc(F)cc1 (configuration not stated),2.4,nt,-0.1,-5,-1%,4%[15.4 µM]
Cc1cc(-c2csc(NC(=O)C3=COCCO3)n2)c(C)n1C,nt,-1.2%,1.2,-8,4%,-4%
CC1(OC(=O)c2ccc(Cl)nc2)C(=O)C=C2C=C3CCCN3C=C2C1=O (configuration not stated),-7.6[11.7 µM],-11%,0.6,16,2%,nt
Cc1ccc(NC(=O)c2c([N+](=O)[O-])c(C(C)(C)C)nn2C)cc1,1.1,0.2%,0.3,-16,4%,-8%[15.4 µM]
O=C(Cn1cnc2ccccc21)NCc1ccccc1,-0.9,-0.3%,1.1,-9,-7%,17%
CCCCOc1ccc(C(=O)NCCc2csc(-c3cccc(F)c3)n2)cc1,nt,?,2.3,19,nt,nt
CCc1ccc(C(=O)COC(=O)CNC(=O)C2CCCCC2)cc1,nt,1.6%,-1.0&0.5,13,4%,-13%[15.4 µM]
COc1ccc(OC)c(/C=C/c2nc3ccccc3c(=O)n2-c2ccc(F)c(Cl)c2)c1,nt,-1.8%,0.2,-10,nt,nt
NC(=O)NC(Cc1ccccc1)C(=O)NNC(=O)COc1ccccc1Cl (configuration not stated),nt,nt,-1.5,18,6%,-5%
Cc1cc(C(=O)CSc2nnnn2-c2ccc(O)cc2)c(C)n1Cc1ccc2c(c1)OCO2,2.1,-0.5%,-0.7,5,?,-4%
C=CCc1ccccc1OCC(O)CNC (configuration not stated),-0.4,-1.7%,0.9,?,19%,?
CCC(Oc1ccccc1)C(=O)N1CCN(S(=O)(=O)c2ccccc2)CC1 (configuration not stated),nt,1.7%,-0.8,0,-20%,?
CCCCN(C)C(=O)c1cc2cc3cc(OC)ccc3nc2o1,-3.8,3.5%,-0.1,-16,-16%,16%
O=C1CSC(c2ccccc2)N1CC(O)c1ccc([N+](=O)[O-])cc1 (configuration not stated),1.0,nt,2.3,-1,-10%,2%[15.4 µM]
CN(C(=O)c1cc2c(=O)n3ccccc3nc2n1C)c1ccccc1,nt,?,0.2,20,nt,nt
Cc1ccc(-c2cc(C(F)(F)F)n3nc(C(=O)Nc4ccon4)cc3n2)cc1C,5.4,nt,1.2,-3,8%,5%[15.4 µM]
COc1cc(C2CC(=O)Oc3cc(C)c(Cl)c(C)c32)cc(OC)c1OC (configuration not stated),nt,-2.8%,-0.1,-1,10%,nt
O=C(CCc1ccccc1)Nc1nc2c(F)cc(F)cc2s1,3.4,nt,0.2,-13,4%,13%[15.4 µM]
